# Sa growth inh = inhibitors of Staphylococcus aureus growth at 42 °C | hit rate 0.53% among 170,000 | relative growth, % (no concentration beside the values) | S. aureus RN4220 growth, OD600, 20 h; hits give low values;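 active means growth at 42 °C up to 50% and 20 or more points under that at 30 °C, or under 10% at both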;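 further: 300 nL library stock went into each well; scaled to the means of positive and negative controls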
# GIV-Gai inh = blocks GIV peptide binding to rat Galpha-i3. P08753. Galpha-i3/FITC-GIV peptide fluorescence polarization, 90 min; hits give low values; scaled: aluminum fluoride 0%, vehicle 100%. percent of control (FP), % (concentration not given with the values). hit rate 0.42% among 210,000. AID 1224905;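 active means replicate mean at 85% of control or lower, very high polarization wells dropped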;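 further: wells of about 15 µL received 100 nL stock; the first replicate is given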
# Target sequence (P08753 whole entry, looked up): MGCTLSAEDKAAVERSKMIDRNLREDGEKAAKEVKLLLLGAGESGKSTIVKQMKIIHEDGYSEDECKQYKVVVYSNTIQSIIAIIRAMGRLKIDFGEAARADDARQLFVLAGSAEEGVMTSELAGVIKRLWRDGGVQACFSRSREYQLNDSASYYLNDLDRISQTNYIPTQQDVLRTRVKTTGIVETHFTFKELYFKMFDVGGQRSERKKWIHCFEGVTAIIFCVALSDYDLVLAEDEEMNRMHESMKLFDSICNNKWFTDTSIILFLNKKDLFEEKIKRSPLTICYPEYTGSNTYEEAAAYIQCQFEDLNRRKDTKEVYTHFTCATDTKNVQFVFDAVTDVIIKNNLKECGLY
# HCMV NEC inh = disrupts HCMV UL50-UL53 complex binding. HTRF UL50-UL53 interaction, normalized percent inhibition. inhibition, % (no concentration beside the values). hit rate 0.15% among 190,000. AID 1918969;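 active means both replicates at 50% or more, plus weaker picks with an unusually low signal ratio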;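 further: stock transfer was 100 nL into about 20 µL; 0% = negative control wells and 100% = wells with untagged competitor protein; inactives centre near -12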
# Sa growth inh second temp = second read-out of Sa growth inh, no call of its own (marks repeat the call); relative growth, %; measured here: growth at 30 °C;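 optical density after 20 h as mean of two plates; 100% = untreated growth and lower means inhibition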
# * marks the source's active call; other numbers are inactive results; · = no result given; & = joins results of further samples.
item	smiles	Sa growth inh	HCMV NEC inh	Sa growth inh second temp	GIV-Gai inh
1	COc1ccc(N2CCN(CCCNC(=O)C3CCCN(S(=O)(=O)c4c(C)noc4C)C3)CC2)cc1 (stereo not drawn)	101	0	97	109
2	CCOC(=O)c1c(S(=O)(=O)N2CCC(C(=O)Nc3ccccc3OC)CC2)c(C)n(CC)c1C	113	·	93	102
3	CC(C)CCNC(=O)CSc1nc2ccsc2c(=O)n1Cc1ccccc1Cl	101	·	91	105
4	O=S(=O)(CCc1ccccc1)c1ccccc1	105	4	104	100
5	N#CC1=CC=C(c2ccc(Cl)cc2)NC1SCc1nc2ccccc2[nH]1 (stereo not drawn)	102	-4	86	·
6	Cn1nc(-c2ccccc2F)c2cc(C(=O)N3CCN(c4ccc(F)cc4)CC3)sc21	112	-16	81	102
7	CCn1c(C)nc2cc(C(=O)NN=C3CCN(C)CC3)ccc21	78	-20	96	·
8	On1c(-c2ccccc2Cl)nc2c1CCc1nonc1-2	110	-7	91	·
9	c1ccc(-c2ccccc2NC2=NCCS2)cc1	84	-16	83	101
10	CC1CC(C)CN(C(=O)Cn2c(=O)n(CCCCC(=O)NCc3ccco3)c(=O)c3ccccc32)C1 (stereo not drawn)	102	-22	88	106
11	O=C(/C=N/O)Nc1cccc(F)c1	103	-20	89	·
12	CC(=O)N1CCc2c(sc3c2c(=O)n(CCc2ccccc2)c(=O)n3Cc2ccccc2C)C1	90	-33	80	101
13	Nc1c(S(=O)(=O)c2ccc(Cl)cc2)c2cnn(-c3ccccc3)c(=O)c2n1CCCN1CCOCC1	81	-1	95	·
14	CC1=C(C(=O)Nc2ccc(Cl)cc2C(=O)N2CCc3ccccc32)SCCO1	96	·	88	94
15	CCCOc1ccc(C2CC(=O)Nc3c2c(C)nn3-c2nncc(-c3cccc(OC)c3)n2)cc1OC (stereo not drawn)	87	-6	68	103
16	COc1ccc(-n2cc[nH]c2=S)cc1	111	-41	99	·
17	CN(C)c1ccc(-c2nnc(SCC3CCCO3)n2C)cc1 (stereo not drawn)	76	-6	86	99
18	CCOC(=O)Cc1c(C)nc2c(C#N)c(C)nn2c1C	98	-24	94	104
19	CC(C)Cn1c(SCC(=O)C(C)(C)C)nc2ccccc2c1=O	94	-7	98	·
20	Cc1ccc(NC(=O)CN2C(=O)CCc3cc(S(=O)(=O)N4CCOCC4)ccc32)c(C)c1	101	·	83	101
21	Cc1ccc(O)c(C(=O)c2cc(-c3nc4ccccc4c(=O)[nH]3)n(C)c2)c1	88	-7	97	·
22	CN1C(=O)C(C)(C)c2cc(S(=O)(=O)N3CCc4ccccc43)ccc21	116	·	85	109
23	CC(=O)Nc1nc2ccccc2c(=O)s1	85	-13	89	102
24	CCN(CC)C(=O)C1CCN(Cc2cccc(OC)c2OC)CC1	86	-3	77	100
25	O=C(Cn1c(C(F)(F)F)nc2ccccc21)c1ccccc1	100	-11	88	·
26	Cc1ccc(-c2cc(C(=O)N3CCN(S(=O)(=O)c4ccc(Br)s4)CC3)[nH]n2)cc1C	112	·	87	96
27	O=C(CSc1nc2ccsc2c(=O)n1Cc1ccccn1)c1ccccc1	100	·	88	108
28	O=C1C2C3C=CC(C3)C2C(=O)N1CNc1ccccc1 (stereo not drawn)	97	-30	89	102
29	C/C(N)=C(/C#N)C(=O)CSc1cc(C)ccc1C	91	2	96	·
30	O=C(c1c[nH]c2ccccc12)C(c1ccccc1)N1CCCCC1 (stereo not drawn)	112	-8	90	·
31	Nc1nc(CCC(=O)O)cs1	99	-12	91	101
32	COC(=O)c1ccc(NC(=O)CCOc2ccccc2)cc1	100	-14	95	107
33	CC1(C)CC(=O)C=C(SCC(=O)c2ccc(Cl)cc2)S1	102	-4	80	103
34	CSc1nc(NNC(=O)c2ccco2)c2c3c(sc2n1)COC(C)(C)C3	109	-11	63	101
35	Cc1cccc(N2CCN(C(=O)Cc3c(C(=O)O)[nH]c4ccc(Cl)cc34)CC2C)c1 (stereo not drawn)	96	1	104	109
36	Cc1cc(C)cc(OCC(=O)Nc2ccc3c(c2)NC(=O)CO3)c1	·	-15	·	97
37	NCc1ccc(OCc2ccc(F)cc2)cc1	97	-27	92	107
38	Cc1ccccc1OCC1=NN2C(=N)/C(=C\c3ccc(SCc4ccco4)o3)C(=O)N=C2S1	75	-18	58	131
39	O=C(NCc1ccc(-c2nc3ccccc3s2)cc1)c1cccnc1	96	-10	88	·
40	Fc1ccc(C(NCCc2ccccc2)c2nnc(-c3ccccc3)o2)cc1 (stereo not drawn)	96	-29	90	96
41	Cc1sc(C2C(C#N)=C(N)N(c3ccc(Cl)cc3)C3=C2C(=O)CCC3)cc1CN1CCOCC1 (stereo not drawn)	96	·	90	102
42	N#Cc1ccc(NC2=NS(=O)(=O)c3ccccc32)cc1	97	-2	96	92
43	CCOc1ccc(NS(=O)(=O)c2ccc(NC(=O)N3CCCC3)cc2)cc1	97	·	90	103
44	c1ccc(-c2nc3ccccn3c2NCC2CCCO2)cc1 (stereo not drawn)	95	-39	83	101
45	Cc1cc(I)ccc1NC(=O)CSc1ncn[nH]1	123	-18	92	·
46	CCCC(=O)N1CCS(=O)CC1	99	-4	93	96
47	CC(Cc1ccccc1)NC(=O)CC(c1ccccc1)c1cc(Br)ccc1O (stereo not drawn)	70	·	73	106
48	Cc1cccc(S(=O)(=O)Nc2cccc(-c3cn4cccc(C)c4n3)c2)c1	·	-14	·	98
49	Nc1nc(SCC(=O)NN(c2ccccc2)c2ccccc2)n[nH]1	99	-25	86	·
50	Cc1ccc(Cn2c(SCC(=O)c3ccc(Br)cc3)nc3ncccc3c2=O)cc1	104	·	89	106
51	O=C(NC1CCCCC1)c1ccc(CS(=O)Cc2ccc(Cl)cc2)o1 (stereo not drawn)	106	-34	79	108
52	Oc1nc2ccccn2c1-c1c(O)nc2ccccn12	88	-18	95	·
53	O=S(=O)(c1ccc2nc(N3CCN(c4cccc(Cl)c4)CC3)ccc2c1)N1CCCCC1	88	·	93	108
54	COc1ccc(/C=N/n2cnnc2)cc1	104	·	90	106
55	Cn1c(=O)[nH]c(=O)c2c1nc(N)n2CCOc1ccccc1	105	4	86	106
56	COC(=O)CC1=CC(=S)Nc2cc(C)c(C)cc2N1	·	-12	·	107
57	Nc1cc(C(=O)O)ccc1Nc1ccccc1	96	-18	92	106
58	COc1ccc2c(CNCc3ccc(Cl)cc3)c(C(=O)O)n(Cc3ccccc3C)c2c1	114	·	87	106
59	COC(=O)c1sc(NC(=O)CSc2nnc3cc(C)c4cccc(C)c4n23)c(C(=O)OC)c1C	·	-2	·	131
60	CCc1ccc(-n2nc(C)c3c(C)cc(=O)n(CC(=O)Nc4ccc(C(C)=O)cc4)c32)cc1	87	·	90	99

# Remaining list, next part
item	smiles	Sa growth inh	HCMV NEC inh	Sa growth inh second temp	GIV-Gai inh
61	CCN1CCN(C(c2ccccc2Cl)c2c(O)cc(C)n(CCOC)c2=O)CC1 (stereo not drawn)	99	·	99	101
62	CCCn1c(=O)c(-c2noc(-c3ccc(Cl)cc3)n2)nn(-c2ccccc2)c1=O	106	-9	89	106
63	CN(c1ccccc1)C(c1ccc(F)cc1)c1nnnn1C1CCCC1 (stereo not drawn)	98	7	74	100
64	O=C1CC(c2ccccc2)C(=O)N1c1ccc(I)cc1 (stereo not drawn)	108	-11	89	102
65	CN1CCN(CCCN2C(=O)CSC2c2ccc(F)cc2)CC1 (stereo not drawn)	108	·	104	106
66	Cc1ccc(NC(=O)CN(Cc2ccccc2)S(=O)(=O)c2ccc3nc(C)sc3c2)c(C)c1	79	·	81	95
67	CCn1c(=O)oc2cc(NS(=O)(=O)c3cnc[nH]3)ccc21	·	-5	·	103
68	COc1ccc(CNC(=O)OCc2nccnc2C(=O)Nc2ccc(Br)cn2)cc1	98	·	96	105
69	CCc1cccc(NC(=O)Cn2c(=O)n(-c3ccccc3C)c(=O)c3c2c2cc(C)ccc2n3C)c1	102	·	94	107
70	COc1cc(C(=O)Nc2ccc3nc(SCc4ccc(C)cc4)sc3c2)cc(OC)c1OC	92	6	82	106
71	Cc1oc(CO)cc1C(=O)O	84	-5	84	·
72	O=C1C(c2ccc(F)cc2)N(CCc2ccc(Cl)cc2)C(=O)CN1C1CCCCCC1 (stereo not drawn)	127	·	91	108
73	COc1ccc2c(c1)CCc1c-2nc2ccc(Br)cc2c1C(=O)O	117	·	91	101
74	Cc1ccccc1C(=O)OCc1cc(=O)n2nc(C(C)C)sc2n1	106	·	82	104
75	CC1CC(C)(C)NC(=S)N1CCCC(=O)NCc1ccccc1 (stereo not drawn)	106	·	93	105

# Reprinted at random: 4 entries already listed
item	smiles	Sa growth inh	HCMV NEC inh	Sa growth inh second temp	GIV-Gai inh
66	Cc1ccc(NC(=O)CN(Cc2ccccc2)S(=O)(=O)c2ccc3nc(C)sc3c2)c(C)c1	79	·	81	95
73	COc1ccc2c(c1)CCc1c-2nc2ccc(Br)cc2c1C(=O)O	117	·	91	101
69	CCc1cccc(NC(=O)Cn2c(=O)n(-c3ccccc3C)c(=O)c3c2c2cc(C)ccc2n3C)c1	102	·	94	107
65	CN1CCN(CCCN2C(=O)CSC2c2ccc(F)cc2)CC1 (stereo not drawn)	108	·	104	106

# A second format for 3 compounds above:
# The line under a structure holds: Sa growth inh, HCMV NEC inh, Sa growth inh second temp, GIV-Gai inh
68: COc1ccc(CNC(=O)OCc2nccnc2C(=O)Nc2ccc(Br)cn2)cc1
→ 98, ·, 96, 105
69: CCc1cccc(NC(=O)Cn2c(=O)n(-c3ccccc3C)c(=O)c3c2c2cc(C)ccc2n3C)c1
→ 102, ·, 94, 107
70: COc1cc(C(=O)Nc2ccc3nc(SCc4ccc(C)cc4)sc3c2)cc(OC)c1OC
→ 92, 6, 82, 106

# Later entries
item	smiles	Sa growth inh	HCMV NEC inh	Sa growth inh second temp	GIV-Gai inh
76	CC(Nc1nc2c(S(=O)(=O)c3ccccc3)nnn2c2ccccc12)c1ccccc1 (stereo not drawn)	·	-15	·	103
77	O=C(Oc1ccc(C=Nc2ccc(F)cc2)cc1)c1ccco1	82	-2	87	·
78	CCOC(=O)c1cc(-c2ccccc2)n(CCC(=O)N(C)Cc2ccccc2)c1	98	·	94	103
79	CC(Nc1ccccc1)N1C(=O)CCC1=O (stereo not drawn)	104	-15	87	121
80	CCOc1ccc(CCNC(=O)COc2ncnc3oc(C)c(C)c23)cc1OCC	·	3	·	92
81	CN(C(=O)CSc1nc(C2CCCC2)nc2c1c(=O)n(C)c(=O)n2C)c1ccccc1	93	·	100	102
82	COc1ccc(-n2nc3ccc(NC(=O)C4CCN(S(=O)(=O)c5ccc(Cl)cc5)CC4)cc3n2)cc1	·	8	·	104
83	CCOC(=O)c1ccc2c(c1)N(Cc1cccc([N+](=O)[O-])c1)C(=O)c1ccccc1S2	88	·	90	103
84	CC(NC(=O)COc1ccccc1F)C1CC2CCC1C2 (stereo not drawn)	84	-21	78	·
85	COc1ccc(CCNC(=O)c2ccc3nccnc3c2)cc1OC	70	-78	81	99
86	CSc1cccc(N2C(=O)N(Cc3ccc([N+](=O)[O-])cc3)c3ccccc3S2(=O)=O)c1	122	·	96	109
87	c1ccc2c(COn3nnc4ccccc43)cccc2c1	88	-18	96	100
88	CCSC1=N/C(=C\c2cc3c(cc2Br)OCO3)C(=O)S1	115	·	89	95
89	CCc1ccc(NC(=O)C2CCN(S(=O)(=O)c3c(C)noc3/C=C/N(C)C)CC2)cc1	104	-6	85	98
90	Cc1c(C(=O)N2CCCCC2)sc(NC(=O)C(C)C)c1C#N	115	-16	109	101

# As entered above.
# HCMV NEC inh, `CCc1ccc(NC(=O)C2CCN(S(=O)(=O)c3c(C)noc3/C=C/N(C)C)CC2)cc1` stands at -6
# Sa growth inh second temp, `CSc1cccc(N2C(=O)N(Cc3ccc([N+](=O)[O-])cc3)c3ccccc3S2(=O)=O)c1` stands at 96

# (continued)
item	smiles	Sa growth inh	HCMV NEC inh	Sa growth inh second temp	GIV-Gai inh
91	CNC(=O)C1C2C=CC3(O2)C1C(=O)N(C1CC1)C3C(=O)NCc1ccc(OC)cc1 (stereo not drawn)	107	-11	77	104
92	Cn1nc(C(=O)NCCN2CCOCC2)c2c1-c1ccccc1CC2	98	-20	90	99
93	CCOC(=O)COc1ccc(F)cc1C(=O)c1ccn2nc(-c3ccc(Cl)cc3)cc2n1	96	-7&-32	90	103&94
94	CC1(C)C(=O)N(CC(=O)Nc2ccc(F)cc2F)c2ccccc21	·	6	·	99
95	CCOc1ccc(NC(=O)c2sc3ncnc(N4CCCCC4C)c3c2C)cc1 (stereo not drawn)	·	-12	·	98

# Complete entries as entered above. Screens in order: Sa growth inh	HCMV NEC inh	Sa growth inh second temp	GIV-Gai inh
# CCN1CCN(C(c2ccccc2Cl)c2c(O)cc(C)n(CCOC)c2=O)CC1 (stereo not drawn) is listed as 99	·	99	101
# COc1ccc(CCNC(=O)c2ccc3nccnc3c2)cc1OC is listed as 70	-78	81	99
# COc1ccc(-n2cc[nH]c2=S)cc1 is listed as 111	-41	99	·
# CCn1c(=O)oc2cc(NS(=O)(=O)c3cnc[nH]3)ccc21 is listed as ·	-5	·	103
# CC1(C)CC(=O)C=C(SCC(=O)c2ccc(Cl)cc2)S1 is listed as 102	-4	80	103
